Compound activity as filed in PubChem BioAssay.
Mtb growth: Mycobacterium tuberculosis H37Rv growth inhibition, putative kinase inhibitor library, confirmatory dose response (AID 2842); 24,000 tested, 5.2% active; M. tuberculosis H37Rv growth inhibition; higher % means a stronger effect; some inactives read as strong as hits; inhibition, % at 10 µg/mL; hits with a dose series show IC90 in µg/mL;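 active = confirmed in a dose series; inconclusive = mostly over 85% at the one dose but not retested; inactive = below 85% or not confirmed; about a fifth of its hits are not listed in these tables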;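 also: bacteria incubated one week before Alamar blue readout; 0% = bacteria only wells and 100% = bacteria with high antibiotic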
Active calls of the source: *; ? = inconclusive. Only part of the results is shown; rates above refer to the full screens.

(1) Cc1ccc(C)c(-c2csc(NC(=O)c3ccc(S(=O)(=O)N4CCc5ccccc5C4)cc3)n2)c1
  Mtb growth = 9%
(2) Cc1ccc(C(=O)c2cn(CC(=O)Nc3ccc4c(c3)OCO4)c3cc4c(cc3c2=O)OCCO4)cc1C
  Mtb growth = 7%
(3) CN1CCc2c(sc(NC(=O)COc3ccc(Cl)cc3Cl)c2C(N)=O)C1
  Mtb growth = 4%
(4) Cc1ccccc1-c1noc(-c2cc(C3CC3)[nH]n2)n1
  Mtb growth = 84%
(5) C=C(C)Cn1c(N2CCN(Cc3ccc(F)cc3)CC2)nc2c1c(=O)[nH]c(=O)n2C
  Mtb growth = -3%
(6) CC(C)n1c(N/N=C/c2ccncc2)nc2c1c(=O)[nH]c(=O)n2C
  Mtb growth = -2%
(7) Cc1cccc(C)c1NC(=O)CSc1nc(-c2ccccc2)nc2c1Cc1cccc(C)c1O2
  Mtb growth = -2%
(8) O=c1cc(Cc2nnc(SCc3ccc(Cl)cc3)n2-c2ccc(F)cc2)[nH]c(=O)[nH]1
  Mtb growth = 6%
(9) CNC(=O)c1ccsc1NC(=O)c1ccc(Br)s1
  Mtb growth = 42%
(10) COC(=O)c1ccc(CSc2nc3sc4c(c3c(=O)[nH]2)CCC4)cc1
  Mtb growth = -36%
(11) COC(=O)C1CCN(S(=O)(=O)c2c[nH]c(=O)[nH]c2=O)CC1
  Mtb growth = -7%
(12) COCC(C)Nc1ncnc2nc[nH]c12 (stereo not drawn)
  Mtb growth = -1%
(13) O=C(Cc1ccccc1)Nc1nnc(-c2ccc(Cl)cc2)s1
  Mtb growth = 7%
(14) Cc1ccc(-c2nnc(NC(=O)C(C)Sc3ccc(Cl)cc3)s2)cc1 (stereo not drawn)
  Mtb growth = -2%
(15) O=C(Nc1nc2c(ccc3ccccc32)s1)c1ccc(S(=O)(=O)N2CCCCC2)cc1
  Mtb growth = 77%

In the list so far, these have a thiophene ring, fused or not:
(3) CN1CCc2c(sc(NC(=O)COc3ccc(Cl)cc3Cl)c2C(N)=O)C1
  Mtb growth = 4%
(9) CNC(=O)c1ccsc1NC(=O)c1ccc(Br)s1
  Mtb growth = 42%
(10) COC(=O)c1ccc(CSc2nc3sc4c(c3c(=O)[nH]2)CCC4)cc1
  Mtb growth = -36%

Other records:
(16) Nn1c(SCC(=O)Nc2cccc(Cl)c2)nnc1-c1ccco1
  Mtb growth = -4%
(17) Cc1ccc(-n2ccnc(NCCc3ccc(Cl)cc3)c2=O)cc1F
  Mtb growth = 60%
(18) CC(=O)c1ccc(NC(=O)CSc2nc(C)cc(C)c2C#N)cc1
  Mtb growth = -11%
(19) COc1ccccc1-c1nc(SCc2cccnc2)c2c(=O)n(C)c(=O)n(C)c2n1
  Mtb growth = 2%
(20) CNC(=O)CSc1nnc(CNC(=O)c2ccc(S(=O)(=O)N(C)C)cc2)o1
  Mtb growth = 0%
(21) CCOc1ccccc1C(=O)Nc1c2c(nn1C(C)(C)C)CS(=O)C2 (stereo not drawn)
  Mtb growth = -4%
(22) CS(=O)(=O)c1cccc(-c2nnc(NC(=O)c3ccc4ncsc4c3)o2)c1
  Mtb growth = -7%
(23) O=c1c2cnn(-c3cccc(Cl)c3)c2ncn1Cc1ccc(Cl)c(Cl)c1
  Mtb growth = -3%
(24) CC(C)c1ccc(OCC(=O)Nc2nccs2)cc1
  Mtb growth = 6.9µg/mL*
(25) CCN1CCc2c(sc(NC(=O)C3CCCCC3)c2C(N)=O)C1
  Mtb growth = 2%
(26) CC(C)(C)c1ccc(C(=O)Nc2nnc(-c3ccccc3)s2)cc1
  Mtb growth = 4%
(27) C=CCOc1ccc(/C(O)=C2/C(=O)C(=O)N(CCCn3ccnc3)C2c2ccccc2)cc1 (stereo not drawn)
  Mtb growth = -14%
(28) CC1CCCN(c2ccc3cccc(OCC(=O)Nc4ccc5c(c4)OCO5)c3n2)C1 (stereo not drawn)
  Mtb growth = 4%
(29) CCOc1ccc(/C=C(\C#N)C(=O)Nc2cccnc2)cc1
  Mtb growth = -3%
(30) COc1cc(-c2nnc(NC(=O)c3ccc4c(c3)CCCC4)o2)cc(OC)c1OC
  Mtb growth = 73%

Sorted by formula weight (ascending): part of the list above
(17) Cc1ccc(-n2ccnc(NCCc3ccc(Cl)cc3)c2=O)cc1F
  Mtb growth = 60%
(20) CNC(=O)CSc1nnc(CNC(=O)c2ccc(S(=O)(=O)N(C)C)cc2)o1
  Mtb growth = 0%
(28) CC1CCCN(c2ccc3cccc(OCC(=O)Nc4ccc5c(c4)OCO5)c3n2)C1 (stereo not drawn)
  Mtb growth = 4%

Some values from the entries so far.
entry 23 | Mtb growth: -3%
entry 20 | Mtb growth: 0%
entry 29 | Mtb growth: -3%

Later entries
(31) CCOC(=O)c1nn(-c2ccc(F)cc2)c(=O)c2c(NC(=O)C(CC)CC)scc12
  Mtb growth = -7%
(32) O=C(Nc1ccc(O)c(-c2nc3ccccc3s2)c1)c1ccc(Br)s1
  Mtb growth = 3%
(33) CCOC(=O)c1csc(Nc2nc3c(F)cccc3s2)n1
  Mtb growth = 42%
(34) COc1ccc(-c2nc(C(N)=O)c3[nH]c(=O)n(-c4ccc(F)cc4)c3n2)c(OC)c1
  Mtb growth = -4%
(35) O=C(O)c1ccccc1SC1CC(=O)N(c2ccccc2F)C1=O (stereo not drawn)
  Mtb growth = -1%
(36) COc1cc([N+](=O)[O-])cc2sc(NC(=O)c3ccc(N(C)C)cc3)nc12
  Mtb growth = -1%
(37) Fc1cc(F)c2nc(Nc3nc4cc5c(cc4s3)OCO5)sc2c1
  Mtb growth = 29%
(38) O=C(O)c1ccccc1NC(=O)C1COc2ccccc2O1 (stereo not drawn)
  Mtb growth = 14%
(39) O=C(Nc1c(C(=O)Nc2ccc(F)cc2)oc2ccccc12)c1ccc([N+](=O)[O-])cc1
  Mtb growth = 5%
(40) Cc1ccc(CC(=O)Nc2nnc(-c3ccco3)o2)c(C)c1
  Mtb growth = 18µg/mL*
(41) Cc1ccc(N2C(=O)CSC23C(=O)N(CC(=O)Nc2ccc(Cl)cc2)c2ccccc23)cc1C (stereo not drawn)
  Mtb growth = 7%
(42) Cn1c(Cn2c(=O)sc3ccccc32)nnc1SCC(=O)NC1CCCCC1
  Mtb growth = -3%
(43) CCc1nc2sc(C(c3ccc(Cl)cc3Cl)N3CCOCC3)c(O)n2n1 (stereo not drawn)
  Mtb growth = 1%
(44) O=C(NNc1nc2cc3c(cc2s1)OCCO3)c1ccc(F)cc1
  Mtb growth = ?
(45) COc1ccccc1C(=O)NCCc1cc2c(C)ccc(C)c2[nH]c1=O
  Mtb growth = 0%

(46) Cc1ccc(N=C2NC(=O)C(Cc3ccc(Cl)cc3)S2)cc1 (stereo not drawn)
  Mtb growth = 11%
(47) Cc1ccc(-n2ncc3c(=O)n(CC(=O)Nc4cc(C)on4)cnc32)cc1
  Mtb growth = 18%
(48) Cc1ccc2cc(CCNC(=O)c3ccccc3[N+](=O)[O-])c(=O)[nH]c2c1
  Mtb growth = -3%
(49) COc1cccc(-c2nc3c(c(=O)[nH]2)Cc2cccc(OC)c2O3)c1
  Mtb growth = -6%
(50) C=C(C)Cn1c(N2CCN(Cc3cc(C)ccc3C)CC2)nc2c1c(=O)[nH]c(=O)n2C
  Mtb growth = -6%
(51) COc1ccc2nc(NNC(=O)c3cccc(F)c3)sc2c1
  Mtb growth = 16µg/mL*
(52) O=C(Nc1nnc(-c2ccc(Cl)cc2)s1)c1cccs1
  Mtb growth = 4%
(53) COc1cccc(-c2csc(-c3cc4cccc([N+](=O)[O-])c4oc3=O)n2)c1
  Mtb growth = 5%
(54) O=C(Cn1cnc2c(cnn2-c2ccc(F)cc2)c1=O)NCc1ccccc1Cl
  Mtb growth = -9%
(55) COc1ccc(-c2nnc(NC(=O)CSc3ccc(C)cc3)s2)cc1
  Mtb growth = -8%
(56) CNC(=O)c1c(NC(=O)c2cccc(S(C)(=O)=O)c2)sc2c1CCN(C(=O)OC)C2
  Mtb growth = -22%
(57) CC(=O)c1cccc(NC(=O)c2ccc(S(=O)(=O)N(C)Cc3ccccc3)cc2)c1
  Mtb growth = -3%
(58) CC(=O)Nc1ccc(NC(=O)CSc2nnc3[nH]c(=O)ccn23)cc1
  Mtb growth = -5%
(59) CCCCc1nc(SCc2ccc(C(F)(F)F)cc2)c2c(=O)n(C)c(=O)n(C)c2n1
  Mtb growth = -6%
(60) Cc1ccc(NC(=O)C(=O)NCC2COC3(CCCC3)O2)cc1 (stereo not drawn)
  Mtb growth = -5%
(61) O=C(Nc1nc(-c2ccccc2)cs1)c1ccc(-c2ccccc2)cc1
  Mtb growth = 10%
(62) Oc1ccc(C=NCCOCCOCCN=Cc2ccc(O)cc2)cc1
  Mtb growth = -5%
(63) COc1cc(/C=C(\C#N)c2nc(-c3ccc4c(c3)OCO4)cs2)cc(OC)c1OC(C)=O
  Mtb growth = 3%

Given bar-delimited: entries from further up
item | smiles | Mtb growth
55 | COc1ccc(-c2nnc(NC(=O)CSc3ccc(C)cc3)s2)cc1 | -8%
56 | CNC(=O)c1c(NC(=O)c2cccc(S(C)(=O)=O)c2)sc2c1CCN(C(=O)OC)C2 | -22%
61 | O=C(Nc1nc(-c2ccccc2)cs1)c1ccc(-c2ccccc2)cc1 | 10%
60 | Cc1ccc(NC(=O)C(=O)NCC2COC3(CCCC3)O2)cc1 (stereo not drawn) | -5%
